# TRPML1 agonist – agonists of human TRPML1 channel | Q9GZU1 | TRPML1-expressing cells, Ca2+ dye fluorescence, FDSS; host cell line not named in the record; reference of the full effect not given here | activation, % (no concentration beside the values) | 410,000 compounds, 0.12% hits | AID 624414; in the data active = activation above about 50%; inconclusive = about 30% to 50%; inactive = below about 30%; note: 0% is about no effect; the text of the record puts the active cut at 80%
#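 Agonist activity was taken from a 110 s kinetic Ca2+ dye read on the FDSS after pinning compounds onto TRPML1-DL cells. The cells were seeded at 1,500/well with Tet inducer, incubated about 16 h, then dye-loaded at room temperature.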
# PINK1 expr mod – modulators of PINK1 expression | PINK1 immunofluorescence, high-content cytometry, 24 h | Potency, µM (series often up to 76.6 µM), for the others: top-dose activation (PINK1 increase), actives largely listed as activators | 410,000 compounds, 0.2% hits; active = well fitted activation curve with a large enough effect; inconclusive = small, poorly fitted or top-dose-only effect; inactive = flat fitted curve, though single readings scatter; cell line not stated here;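 note: potency is the fitted concentration of half-maximal effect; % of control where 0% means no effect; nearly all actives have a fitted effect of over 65% in size; a mitochondrial uncoupler was the plate control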
#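 PINK1 protein, normally rapidly degraded, was detected by immunofluorescence after 24 hour compound treatment of a stable cell line. Titration data (5 concentrations) came from laser-scanning cytometry, with CCCP-treated wells as controls.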
# Six1-Eya2 inh – inhibitors of human Six1/Eya2 interaction; Q15475+O00167; AlphaScreen GST-Six1/His-Eya2 binding, biochemical; active compounds read low; control for the full effect not named in the record; activity change, % (no concentration beside the values); 360,000 compounds, 0.56% hits; in the data active = activity change below about -65%; inconclusive = about -30% to -65%; inactive = above about -30%; note: % is set by controls: 0 for no effect and ±100 for the full control effect
# Target sequence (O00167 whole entry, looked up): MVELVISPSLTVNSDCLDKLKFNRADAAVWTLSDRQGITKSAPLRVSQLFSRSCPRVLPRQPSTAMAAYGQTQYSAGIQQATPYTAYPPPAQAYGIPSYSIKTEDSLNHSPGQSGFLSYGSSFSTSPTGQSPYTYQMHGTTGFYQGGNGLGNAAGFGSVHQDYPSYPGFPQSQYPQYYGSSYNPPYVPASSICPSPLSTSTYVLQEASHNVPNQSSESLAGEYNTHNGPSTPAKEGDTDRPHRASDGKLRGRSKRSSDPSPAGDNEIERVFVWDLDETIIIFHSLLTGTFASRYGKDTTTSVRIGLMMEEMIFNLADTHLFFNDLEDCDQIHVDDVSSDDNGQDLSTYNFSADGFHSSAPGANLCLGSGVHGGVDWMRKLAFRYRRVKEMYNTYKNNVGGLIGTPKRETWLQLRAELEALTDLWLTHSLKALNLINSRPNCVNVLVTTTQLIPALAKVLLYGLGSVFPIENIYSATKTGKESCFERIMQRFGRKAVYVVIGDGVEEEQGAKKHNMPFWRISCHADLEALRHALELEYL
# Target sequence (Q15475 whole entry, looked up): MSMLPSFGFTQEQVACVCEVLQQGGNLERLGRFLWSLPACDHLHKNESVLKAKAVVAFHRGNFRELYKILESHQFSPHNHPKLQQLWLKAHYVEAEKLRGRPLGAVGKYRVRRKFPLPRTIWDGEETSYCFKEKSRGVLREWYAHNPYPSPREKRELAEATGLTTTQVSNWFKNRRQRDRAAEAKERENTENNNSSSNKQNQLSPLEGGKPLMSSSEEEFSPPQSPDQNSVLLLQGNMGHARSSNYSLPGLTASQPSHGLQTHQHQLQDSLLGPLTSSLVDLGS
#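 GST-Six1 + His-Eya2 (5X stock: 250/500 nM); Tris pH 8.0, 300 mM NaCl, 0.05% BSA, 0.02% Tween 20; GSH donor/Ni acceptor beads; 1 h 37 °C dark; AlphaScreen readout.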
# D2 agonist – human D2 receptor agonism in beta-arrestin assay; P14416; 360,000 compounds, 0.084% hits; DiscoveRx PathHunter D2 beta-arrestin, luminescence, 90 min; 100% = 57 uM dopamine signal; AID 624465; activation, % (no concentration beside the values); in the data active = activation above about 40%; inconclusive = about 15% to 40%; inactive = below about 15%; note: compound concentration not given in the record; the text of the record calls up to 30% inactive
#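 DiscoveRx PathHunter D2 beta-arrestin cells (2,100/well) attached overnight, then compound-stimulated 90 min at 37 C in HBSS/10 mM HEPES/0.1% Tween-20 buffer; beta-galactosidase complementation read by luminescence after 1 h at ambient temperature. Dopamine 57 uM final (EC100) as control.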
# D2 potentiator – human D2 receptor positive allosteric modulation | DiscoveRx D2 beta-arrestin cells, luminescence, 90 min; 100% = 57 uM dopamine signal | potentiation, % (test concentration not listed) | AID 624464 | P14416 | 360,000 compounds, 0.23% hits; active = potentiation of 50% or more; inconclusive = 30% to 50%; inactive = 30% or less;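 note: compound concentration not given in the record; tested on top of an EC20 dose of dopamine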
#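 PathHunter beta-arrestin assay in DiscoveRx D2 cells. Compounds were added with an EC20 of dopamine (50 nM final) for 90 min at 37 deg C. Luminescence was read 1 h after detection reagent, with 57 uM dopamine as the EC100 control.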
# CtBP-E1A inh – inhibitors of CtBP/E1A interaction | AlphaScreen GST-E1A/His-CtBP binding, 1536-well; active compounds read low; control for the full effect not named in the record | activity change, % (test concentration not listed) | 340,000 compounds, 0.49% hits | AID 651724; in the data active means activity change below about -65%; inconclusive means about -30% to -65%; inactive means above about -30%; note: % is set by controls: 0 for no effect and ±100 for the full control effect
#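 AlphaScreen with 125 nM GST-E1A and 125 nM His-CtBP (5X stocks) in Tris pH 8.0, 300 mM NaCl, BSA, Tween 20, TCEP. Compounds preincubated 2 h at 37 deg C, then glutathione donor/nickel acceptor beads added for 1 h at 37 deg C in dark.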
# An asterisk follows results filed as active; ? = inconclusive; / = no result given; & = joins results of further samples; [ ] = dose if it differs, or a comment.
SMILES,TRPML1 agonist,PINK1 expr mod,Six1-Eya2 inh,D2 agonist,D2 potentiator,CtBP-E1A inh
CC1=Nc2cc(C(=O)NCCCOC(C)C)ccc2Sc2ccccc21,0.3,6.8%,-3,-2.1,-3,2
CCOc1cc(/C=N/NC(=O)c2cc(C)n(-c3ccc(F)cc3)c2C)ccc1O,-0.7,1.8%,-21,-5.4,-15,/
CCOC(=O)/C(C#N)=C/c1cc2ccccc2nc1N1CCCCC1,-0.1,-4.4%,-2,-3.7,3,-18
Cc1cc(NC(=O)c2cccc(S(=O)(=O)N3CCCC3)c2)no1,1.7,4.7%[38.3 µM],-2,-1.0,-12,-7
CC1CCN(Cc2c(C(=O)N/N=C/c3ccccc3O)nnn2-c2nonc2N)CC1,0.5,-0.2%,-1,-6.8,-8,-17
NC(=O)CSc1nc(-c2ccccc2Cl)ns1,0.8,-3.4%,5,0.5,5,0
CCn1c(SCC(=O)NCc2ccc3c(c2)OCO3)nnc1-c1ccco1,0.9,-2.6%,-5,-4.1,-8,-2
CCOCc1nnc(NC(=O)C2CCN(C(=O)C3CC(=O)N(c4ccc(C)cc4)C3)CC2)s1 (configuration not stated),0.1,-0.5%,-9,-0.8,-4,-3
Cc1ccc(NC(=O)COC(=O)c2cc(Cl)cc(Cl)c2)c(Br)c1,0.4,12%,15,0.2,11,1
O=C(Nc1ccc(Cl)c(C(F)(F)F)c1)[C@@H]1CC=C[C@@H]2CCN(C3CCCCC3)C(=O)[C@@H]21,-0.1&-0.8,0.4%,3,0.9,-7,6
Cc1cc(C(=O)CSc2n[nH]c(N)n2)c(C)n1-c1ccc(F)cc1,-0.6,15%[38.3 µM],-16,-1.5,1,-5
O=c1c2ccccc2nc2n1CCc1ccc(Br)cc1-2,-0.4,2.2%,7,-5.9,-5,-1
COc1ccc(NC(=O)CCn2c(=S)[nH]c3ccccc3c2=O)cc1,0.2,2.9%,1,-1.1,3,-1
Fc1ccc2c(c1)C(c1ccncc1)=NNC(c1ccc(Cl)cc1)=N2,0.9,-5.2%[38.3 µM],-2,-2.9,-20,-3
Cc1ccc(CNc2nc3ccc(C)cc3n3cnnc23)cc1,-0.9,5.0%,1,-5.3,-2,0
CN(Cc1ccccc1)C(=O)c1nn2cccnc2c1Cl,0.5,-0.1%,3,-0.8,-9,2
COc1ccc(OC)c(N/C=C/C(=O)c2ccc(OC)c(OC)c2)c1,0.1,7.9%,15,0.2,-7,-26
c1cncc(Oc2cccc(Oc3cccnc3)c2)c1,-0.5,3.9%,0,-0.6,-13,6
CCC(C)NC(=O)[C@@H]1CCCN1C(=O)C1CCN(S(=O)(=O)c2ccc(C)cc2)CC1 (some centres not stated),0.5,-1.2%,6,-2.2,-14,-6
O=C(Nc1cccnc1)c1ccc(NC(=O)c2ccco2)cc1,0.2,-0.3%,-4,-0.8,-8,-4
O=C(c1cc[n+]([O-])cc1)N1CCc2c([nH]c3ccccc23)C1c1ccccc1Cl (configuration not stated),0.9,6.5%,-8,1.2,-5,0
O=C(CCC1CCCC1)Nc1nnc(-c2ccc3c(c2)OCO3)s1,0.6,-0.8%,-6,-1.2,-18,7
N#CCC(=O)Nc1ccc(C(=O)OCC(=O)N(C2CCCCC2)C2CCCCC2)cc1,2.3,0.8%,-9,5.4,-5,3
O=C(Nc1nc2c(s1)CCCC2)c1ccc(Br)o1,-1.0,0.1%,-7,-4.3,-20,-6
O=C1N[C@@H](Cc2cn(S(=O)(=O)c3ccc([N+](=O)[O-])cc3)c3ccccc23)C(=O)N[C@H]1Cc1ccccc1,1.0,5.1%,2,1.5,-6,0
Cc1noc(C)c1C(=O)Nc1nc2ccc(F)cc2s1,0.2,-0.4%,8,5.7,-4,/
Cc1ccc(-c2nc(C)sc2CC(=O)OCC(=O)Nc2ccc(F)c(Cl)c2)cc1,3.1,0.1%,-9,-2.8,-7,0
CCOC(=O)CNC(=O)CSc1nc(NCc2ccccc2)nc(N(C)C)n1,1.6,5.1%,1,-3.0,24,3
COc1ccc(NC(=O)COC(=O)C2CCN(S(=O)(=O)c3cccs3)CC2)cc1OC,-0.3,-1.6%,-4,-4.0,-7,-4
CCOC(=O)C1=C(N)N2C(=O)C(C)SC2=C(C(=O)OC)C1c1ccccc1OC (configuration not stated),4.4,5.8%,-5,-2.2,10,-11
O=C(Cn1cnc2c(cnn2-c2ccccc2)c1=O)N1CCOCC1,-0.8,-1.0%,-1,-4.3,-7,1
O=C(CN1CCOCC1)N1CCN(c2ccc([N+](=O)[O-])cc2)CC1,-1.4,0.5%,3,-6.2,-10,9
COc1ccccc1-n1cc2ccc([N+](=O)[O-])cc2n1,-1.2,7.3%,-2,-1.9,-20,/
O=C(CCCn1c(=O)[nH]c2ccsc2c1=O)Nc1ccc(F)cc1,-0.6,1.7%,4,-1.8,-9,/
CCNC(=O)c1cc2ccccc2o1,-1.3,-1.0%,5,-3.9,2,9
Cc1cnc(C(=O)NCc2ccc(Cl)cc2Cl)cn1,0.8,2.4%,2,-3.7,4,7
CN(CC(=O)Nc1ccc(F)cc1)C(=O)c1ccncc1,-0.4,-0.6%,10,-1.5,5,10
Cc1onc(-c2c(F)cccc2Cl)c1C(=O)NCCCN1CCOCC1,0.2,2.0%[38.3 µM],1,-2.3,-5,4
CCOC(=O)C(CCCOc1cccc(OC)c1)C(=O)OCC,1.8,0.7%[38.3 µM],31,-3.9,-7,34
O=C1C(=O)c2cccnc2-c2ncccc21,2.9,-1.4%,-83*,56*,?,-80*

# Whole records, looked up by structure. Values in the order: TRPML1 agonist, PINK1 expr mod, Six1-Eya2 inh, D2 agonist, D2 potentiator, CtBP-E1A inh
# Cc1noc(C)c1C(=O)Nc1nc2ccc(F)cc2s1 is listed with 0.2, -0.4%, 8, 5.7, -4, /
# CCOC(=O)CNC(=O)CSc1nc(NCc2ccccc2)nc(N(C)C)n1 is listed with 1.6, 5.1%, 1, -3.0, 24, 3
# CCOC(=O)C(CCCOc1cccc(OC)c1)C(=O)OCC is listed with 1.8, 0.7%[38.3 µM], 31, -3.9, -7, 34
# CN(CC(=O)Nc1ccc(F)cc1)C(=O)c1ccncc1 is listed with -0.4, -0.6%, 10, -1.5, 5, 10

# Following part
SMILES,TRPML1 agonist,PINK1 expr mod,Six1-Eya2 inh,D2 agonist,D2 potentiator,CtBP-E1A inh
Cn1c(=O)oc2cc(S(=O)(=O)NCCC(=O)N3CC=C(c4ccccc4)CC3)ccc21,0.2,-3.1%[38.3 µM],0,1.8,13,4
COc1ccc(OC)c(N(CC(=O)NCc2ccccn2)S(C)(=O)=O)c1,0.8,-0.8%,0,-2.2,6,-18
COc1ccc(N2CCN(C(=O)COC(=O)COc3cc(C)cc(C)c3)CC2)cc1,0.0,-0.7%,-12,-3.3,3,-4
CC(C)c1ccc(NC(=O)CN2C(=O)NC3(CCCCCCC3)C2=O)cc1,0.2,2.7%,0,-1.7,-9,2
COc1ccc(C2C(C(C)=O)=C(O)C(=O)N2c2nccs2)cc1 (configuration not stated),-0.9,1.4%,-1,-3.4,-7,11
CCCCC(c1nnnn1CC1CCCO1)N1CCN(c2nc3ccccc3s2)CC1 (configuration not stated),-0.6,2.2%,-5,-4.5,-16,5
NC(=O)CSC1=Nc2ccccc2C2=NC(CCC(=O)NCc3ccc(F)cc3)C(=O)N12 (configuration not stated),0.7,4.5%,0,-0.8,-17,-4
COc1ccc(CNc2nc3nc(C)c(Cl)c(=O)n3[nH]2)cc1,/,0.9%,-3,-1.4,-1,-1
C=CCSc1nnc2nc3c(nn12)c1cc(C)ccc1n3CC=C,2.7,0.4%,?,-5.1,-5,?
CCCC[n+]1c2ccccc2cc2ccccc21,1.6,-0.6%,4,10,-40,/
Cc1cc(=O)n2c(n1)NC(=NCc1ccccc1)NC2c1ccccc1 (configuration not stated),0.6,-1.0%,5,-4.0,-7,0
Cc1ccc(S(=O)(=O)NOCc2ccccc2)cc1,-0.3,1.7%,3,-0.6,/,6
COc1cc2[nH]c(C(=O)N3CCc4ccccc43)cc2c(OC)c1OC,/,1.9%,-4,-4.1,-7,-3
O=C(CN1CCN(C(=O)c2ccccc2F)CC1)Nc1ccc(Br)cc1,-0.3,1.8%,0,-2.2,-1,-8
COc1ccccc1CNC(=O)C1(NC(=O)Nc2ccc(C)cc2)CCCCC1,3.6,2.2%,-2,2.3,3,/
Cc1ccc(NC(=O)NN2CCN(C)CC2)cc1C,0.1,0.1%,2,-3.2,-7,0
Cc1cnc(C(=O)Nc2ccc(C)c(S(=O)(=O)N(C)C)c2)cn1,-0.5,1.6%,11,-5.2,-10,0
Cc1nn(CCCC(=O)NCCCN2CCN(C)CC2)c(=O)c2c1sc1ccccc12,-0.3,-0.5%,0,-5.0,-15,-12
O=C(NCc1ccccc1)c1cc(C2COCCN2C(=O)CCc2ccccc2)on1 (configuration not stated),-0.7,0.0%,-4,-3.1,0,1
O=C(C[n+]1cccc2ccccc21)c1ccc([N+](=O)[O-])cc1,7.1,17%,8,-0.9,-3,-2
COc1ccc(OC)c(CN2CCN(C(=O)c3cccc4ccccc34)CC2)c1,-0.3,-2.4%[38.3 µM],-14,1.0,-16,-7
CCCNC(=O)C1(C)CCN(C(=O)c2cc(C(C)(C)C)nn2C)C1 (configuration not stated),-0.9,0.9%,4,-1.5,2,29
COc1ccc(NS(=O)(=O)c2ccc(C)c(C(=O)NNC(=O)c3ccccc3O)c2)cc1,-0.1,5.0%,-9,0.5,-9,-1
CC1(C)CC(=O)C=C(c2ccc(-c3ccc(S(C)(=O)=O)cc3)cc2)C1=O,0.6,0.9%,-3,-5.3,6,0
CCCn1c(SCC(=O)NCCc2ccccc2)nnc1C(C)C,0.8,-1.4%,0,6.2,-2,3
COC(=O)c1ccc(=O)n(-c2ccc(OC)cc2)c1,1.0,0.0%,-1,-2.8,-22,-3
CCOc1ccc(C(=O)NC2CCN(CC(=O)NCc3cccs3)CC2)cc1,2.4,3.8%,23,4.0,5,1
O=C(CNC(=O)c1cccs1)N/N=C/c1ccco1,-0.6,3.8%,-5,-0.8,-28,/
COc1ccc(OC)c(NC(=O)c2c(NC(=O)CNCc3ccco3)sc3c2CCC3)c1,-1.4,3.1%,2,-2.5,-11,9
Cc1ccc(NC(=O)CSCC(=O)N2CCN(C(=O)c3ccco3)CC2)cc1,-0.3,-2.1%,6,-1.7,0,1
CSc1ccc(CCNC(=O)c2ccc(CS(=O)Cc3ccccc3Cl)o2)cc1 (configuration not stated),-0.8,1.8%,-4,-1.4,0,-7
CCN(CC(=O)Nc1ccccc1C(F)(F)F)C(=O)CSCc1c(C)noc1C,0.0,2.4%,7,-2.6,-5,2
O=C(OCc1nc2ccccc2s1)c1ccc([N+](=O)[O-])o1,-0.4,7.4%,9,0.9,0,24
CCc1nc(CN(C)C(=O)C2CCC(=O)N(CCc3cccc(F)c3)C2)no1 (configuration not stated),0.4,2.7%,6,-1.3,2,0
COc1ccc(OCC(=O)N/N=C(\C)c2cccs2)cc1,-0.6,-0.9%,5,-5.8,-12,/
COc1ccc2c(c1)c([C@@H]1[C@H](C)[C@H]3CCCC[C@H]3CN1S(=O)(=O)c1ccc(C)cc1)cn2C,0.0,0.9%,-3,-0.2,/,-2
